Source: PubChem (National Center for Advancing Translational Sciences (NCATS))
PINK1 expr mod – PINK1 expression modulation | PINK1 immunofluorescence, high-content cytometry, 24 h | Potency, µM (titrated, usually from 76.6 µM), inactives show at the top dose activation (PINK1 increase), most hits filed as activators | 410,000 compounds, 0.2% hits; active = well fitted activation curve with a large enough effect; inconclusive = small, poorly fitted or top-dose-only effect; inactive = flat fitted curve, though single readings scatter; cell line not stated here;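 note: potency is the fitted concentration of half-maximal effect; % of control where 0% means no effect; nearly all actives have a fitted effect of over 65% in size; a mitochondrial uncoupler was the plate control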
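Cells are seeded, rested 12 hours, then given compound at five concentrations or DMSO for 24 hours. After fixation, blocking and antibody staining, PINK1 amount and mitochondrial localization are scored; CCCP serves as control.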
TRPML1 ag – human mucolipin-1 channel agonism; TRPML1-expressing cells, Ca2+ dye fluorescence, FDSS; host cell line not named in the record; reference of the full effect not given here; AID 624414; 410,000 compounds, 0.12% hits; activation, % (no concentration beside the values); in the data active = activation above about 50%; inconclusive = about 30% to 50%; inactive = below about 30%; note: 0% is about no effect; the text of the record puts the active cut at 80%
Target sequence (Q9GZU1 whole entry, looked up): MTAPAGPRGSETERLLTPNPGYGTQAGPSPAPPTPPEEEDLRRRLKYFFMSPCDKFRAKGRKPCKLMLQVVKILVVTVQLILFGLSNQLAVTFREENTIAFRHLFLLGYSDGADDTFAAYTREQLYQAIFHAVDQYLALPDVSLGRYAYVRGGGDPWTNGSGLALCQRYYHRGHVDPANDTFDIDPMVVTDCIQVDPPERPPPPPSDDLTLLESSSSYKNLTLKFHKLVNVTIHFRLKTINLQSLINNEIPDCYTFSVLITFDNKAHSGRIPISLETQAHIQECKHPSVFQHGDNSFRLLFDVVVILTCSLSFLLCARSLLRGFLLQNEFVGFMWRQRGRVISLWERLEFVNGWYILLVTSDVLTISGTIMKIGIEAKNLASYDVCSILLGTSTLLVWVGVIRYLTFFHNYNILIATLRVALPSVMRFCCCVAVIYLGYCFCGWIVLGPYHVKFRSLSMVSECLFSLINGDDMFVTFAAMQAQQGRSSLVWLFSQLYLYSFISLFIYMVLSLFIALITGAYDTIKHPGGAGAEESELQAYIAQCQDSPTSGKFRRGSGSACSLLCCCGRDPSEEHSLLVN
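Calcium fluorescence on an FDSS kinetic reader gave the read-out. Tet-induced TRPML1-DL cells were plated overnight, dye-loaded (Ca8 with quencher, 45-90 min, room temperature, dark), then read 110 s after compound addition, and again 110 s after 4uM final 54-4 (EC80).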
D2 agonist – activates the human D2 dopamine receptor | 360,000 compounds, 0.084% hits | activation, % (test concentration not listed) | DiscoveRx PathHunter D2 beta-arrestin, luminescence, 90 min; 100% = 57 uM dopamine signal | P14416; in the data active = activation above about 40%; inconclusive = about 15% to 40%; inactive = below about 15%; note: compound concentration not given in the record; the text of the record calls up to 30% inactive
Target sequence (P14416 whole entry, looked up): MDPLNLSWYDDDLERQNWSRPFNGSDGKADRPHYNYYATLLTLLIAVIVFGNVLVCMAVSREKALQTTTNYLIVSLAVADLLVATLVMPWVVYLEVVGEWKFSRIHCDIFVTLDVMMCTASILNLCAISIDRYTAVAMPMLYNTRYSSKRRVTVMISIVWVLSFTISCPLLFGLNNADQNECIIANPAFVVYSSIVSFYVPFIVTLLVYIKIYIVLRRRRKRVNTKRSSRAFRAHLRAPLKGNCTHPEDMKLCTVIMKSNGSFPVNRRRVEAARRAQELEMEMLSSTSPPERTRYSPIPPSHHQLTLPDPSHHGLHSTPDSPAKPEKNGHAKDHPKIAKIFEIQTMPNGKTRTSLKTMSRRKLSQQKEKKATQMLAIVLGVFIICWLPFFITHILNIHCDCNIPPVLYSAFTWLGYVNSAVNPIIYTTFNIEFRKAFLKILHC
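DiscoveRx PathHunter D2 beta-arrestin cells (2,100/well) attached overnight, then compound-stimulated 90 min at 37 C in HBSS/10 mM HEPES/0.1% Tween-20 buffer; beta-galactosidase complementation read by luminescence after 1 h at ambient temperature. Dopamine 57 uM final (EC100) as control.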
D2 potentiator – positive allosteric modulators of human D2 dopamine receptor | P14416 | DiscoveRx D2 beta-arrestin cells, luminescence, 90 min; 100% = 57 uM dopamine signal | potentiation, % (test concentration not listed) | 360,000 compounds, 0.23% hits; active = potentiation of 50% or more; inconclusive = 30% to 50%; inactive = 30% or less;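 note: compound concentration not given in the record; tested on top of an EC20 dose of dopamine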
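PathHunter beta-arrestin assay in DiscoveRx D2 cells. Compounds were added with an EC20 of dopamine (50 nM final) for 90 min at 37 deg C. Luminescence was read 1 h after detection reagent, with 57 uM dopamine as the EC100 control.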
TRPML1 inh – human mucolipin-1 channel inhibition; TRPML1-inducible cells, Ca2+ dye fluorescence, FDSS; active compounds read low; inhibition of EC80 agonist-evoked calcium signal; Q9GZU1; activity change, negative = inhibition, % (concentration not given with the values); AID 624415; 390,000 compounds, 0.02% hits; in the data active means activity change below about -50%; inconclusive means about -30% to -50%; inactive means above about -30%;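 note: stimulus is agonist 54-4 at its EC80 concentration; % is set by controls: 0 for no effect and ±100 for the full control effect; the text of the record puts the active cut at -80%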
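Tet-induced TRPML1-DL cells loaded with Ca8 no-wash calcium dye were read kinetically on FDSS. Compound addition was followed by EC80 agonist 54-4 (4 uM final); inhibition was read over 110 s.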
Six1-Eya2 inh – inhibitors of human Six1/Eya2 interaction | Q15475+O00167 | AlphaScreen GST-Six1/His-Eya2 binding, biochemical; active compounds read low; control for the full effect not named in the record | activity change, % (no concentration beside the values) | 360,000 compounds, 0.56% hits; in the data active = activity change below about -65%; inconclusive = about -30% to -65%; inactive = above about -30%; note: % is set by controls: 0 for no effect and ±100 for the full control effect
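Compounds are tested against tagged Six1 and Eya2 proteins bridged by glutathione donor and nickel acceptor beads; after a one-hour incubation at 37 °C without light, AlphaScreen emission is recorded.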
The depositor's hits bear a star; ? = inconclusive; . = no result given; [ ] = remark or other dose.

SMILES	PINK1 expr mod	TRPML1 ag	D2 agonist	D2 potentiator	TRPML1 inh	Six1-Eya2 inh
Cc1ccc(NC(=O)CN(C)C(=O)/C=C/c2cccs2)cc1	0.4%	0.4	-2.6	-24	-25	0
CCCc1ccc(S(=O)(=O)N2CCN(C(C)C(=O)NC3CCCC3)CC2)cc1 (configuration not stated)	0.4%	1.4	3.1	-6	8	-3
COc1ccc(NC(=O)N(C)C[C@H]2Oc3c(NC(=O)C4CCCCC4)cccc3C(=O)N([C@H](C)CO)C[C@@H]2C)cc1	0.6%	-0.6	1.0	.	2	5
O=C1C(=O)N(Cc2ccccc2)C(=O)N1CCOc1ccccc1	8.1%	0.0	-0.8	-6	8	5
O=C(CSc1nc2ccccc2nc1N1CCCC1)Nc1ccc(F)cc1	8.8%	0.9	1.8	-1	23	12
CC(=NNS(=O)(=O)c1ccc(C)cc1)c1ccncc1	0.5%	-0.4	-0.3	-12	26	-1
CCOc1ccc(NC(=O)Cn2c(=O)cc(C)c3c(C)nn(C)c32)cc1	-0.2%	-0.8	.	.	0	.
CCn1nc(C)cc1C(=O)OCC(=O)c1ccc(Cl)cc1	0.6%	2.1	-6.7	-13	-8	-6
O=C(C[C@@H]1NS(=O)(=O)OC2CCCCC21)c1ccccc1 (some centres not stated)	-0.2%	0.0	-4.4	-12	2	3
CC(C)CC1NC(=O)N(CC(=O)N2CCN(S(=O)(=O)c3ccc(Cl)cc3)CC2)C1=O (configuration not stated)	1.6%	-0.5	-4.0	-22	-11	-13
COc1cc(N2C(=O)c3ccccc3C2=O)c(Cl)cc1C(=O)OCC(=O)N1CCOCC1	-3.0%	0.0	4.5	-11	-6	9
COc1ccccc1NC(=O)CSc1nnc(C)n1CC1CCCO1 (configuration not stated)	0.8%	-0.1	-1.2	5	14	12
CCN(C(C)=O)c1cccc2ccccc12	2.4%	-0.6	-2.2	-8	-8	5
COc1ccccc1C(=O)C1CCCN(C(=O)c2snnc2C)C1 (configuration not stated)	1.6%	-0.1	0.1	3	2	32
Cc1ccccc1C(=O)N1CCN(c2ccc(NC(=O)c3cccs3)cc2)CC1	2.9%	0.6	-1.2	-3	-3	-5
COc1ccccc1N1CCN(C(=O)CSc2nc(C)c(Cc3ccccc3)c(=O)[nH]2)CC1	-1.6%[38.3 µM]	1.0	-0.4	-8	-4	-1
COc1cc(Cl)c(C)cc1NC(=O)Cn1ncc2c1-c1cc(C)ccc1OC2	-0.2%	1.3	.	.	14	.
O=C(CN1CCN(Cc2ccccc2)CC1)c1ccccc1	-0.5%	-0.3	1.7	-10	9	3
C=CCn1c(=NC(=O)c2cccc(N3C(=O)CCC3=O)c2)sc2cccc(OC)c21	0.3%	0.4	?	9	9	1
CN(C)c1ccc(-c2nnn(CC(=O)Nc3ccccc3N3CCOCC3)n2)cc1	.	0.9	3.3	6	-10	-23
CN1CCN(S(=O)(=O)c2ccc(Br)c3ccccc23)CC1	0.4%	-0.2	-2.9	-5	1	-4
CC1CN(Cc2ccc(C#N)cc2Cl)CC(C)O1 (configuration not stated)	0.1%	-1.0	-0.3	-2	7	-3
O=C(Nc1ccccc1F)C1CCCN(S(=O)(=O)c2cccc3cccnc23)C1 (configuration not stated)	0.1%	1.6	-2.4	-2	-7	3
N#C/C(=C1\CCCN1)c1nc2ccccc2c(=O)[nH]1	-0.6%	0.4	-5.6	10	0	8
Cc1ccc(NC(=O)CSc2nc3[nH]c(=O)cc(O)c3s2)c(Br)c1	2.4%	-0.4	-3.4	0	3	-1
COc1cc2c(cc1OC)C(Nn1cnnc1)=NC1(CCCC1)C2	-0.5%	0.1	0.4	-9	-13	8
O=C(/C=C/c1cccc([N+](=O)[O-])c1)c1ccc([N+](=O)[O-])o1	-2.2%	0.9	9.1	16	10	1
O=C(Nc1cccc2cccnc12)c1cccnc1	4.9%[38.3 µM]	-0.6	-2.3	-8	-3	2
O=S(=O)(Nc1ccc(Cl)cn1)c1ccc2c(c1)OCCO2	1.5%	-0.1	-4.4	-7	-2	-8
Cc1cc(C(=O)NNC(=O)C2CCCC2)c(C)o1	0.0%	1.8	1.0	1	36	10
O=C(O)CN(Cc1ccco1)S(=O)(=O)c1ccccc1	-0.4%	-0.6	0.2	9	13	2
CC(=O)c1cc(-c2ccccc2)n(CC(=O)Nc2cc(C)cc(C)c2)c1C	-0.6%	1.0	-0.6	-1	-30	4
N#C/C(=C(/O)COc1ccccc1)c1nnc2n1CCCCC2	-0.3%	0.0	-3.9	-3	22	11
C=C(C)Cn1c(SCC(=O)O)nnc1-c1ccc(C(C)(C)C)cc1	0.3%	-0.2	-2.1	8	15	4
C=CCNC(=O)c1onc(CSc2ccc(C)c(C)c2)c1C(=O)O	-0.3%	-0.6	-4.8	2	-15	25
N#CCCN(Cc1cccnc1)C(=S)NCc1ccco1	1.6%	2.0	5.4	7	21	4
CCOc1ccc2nc(NC(=O)CSc3cn[nH]n3)sc2c1	0.4%	-1.4	1.3	-9	-6	-17
COCCCNC(=S)N1CCN(Cc2ccc3c(c2)OCO3)CC1	1.1%	0.6	2.5	-8	-4	7
O=C(CNC(=O)c1ccccc1)NCC(=O)OCC(=O)c1ccc([N+](=O)[O-])cc1	1.0%	1.0	3.8	1	-9	0
Cc1ccc(C(=O)COC(=O)CCN2C(=O)C3C4CCC(C4)C3C2=O)cc1C (configuration not stated)	-1.3%	-0.4	-2.7	-29	-9	-2
Cc1ccc(NC(=S)NC(=O)C2CCCC2)c(Br)c1	4.9%	2.5	7.1	-1	-9	0
CCOc1ccc(C2Sc3ccccc3NC3=C2C(=O)OC3)cc1 (configuration not stated)	-0.5%	1.4	2.9	18	2	-6
CC1=CC(=O)C(C(C)=Nc2cccc(Cl)c2)C(=O)O1 (configuration not stated)	-1.7%	0.0	1.8	-2	-7	-2
CCn1c(SCC(=O)N/N=C(\C)c2ccco2)nnc1-c1ccccc1	-1.0%	-0.8	-5.0	-5	-7	5
CCOc1ccc(S(=O)(=O)N2CCCCCC2)cc1	-2.2%[38.3 µM]	-0.2	-1.0	-3	0	14
O=C(Cn1ncc2c(=O)oc3ccccc3c21)N1CCc2ccccc2C1	0.8%	-0.6	-5.0	-2	-7	0
Nc1cc2ccccc2oc1=O	0.5%	-0.6	-0.5	-13	8	3
COC(=O)c1ncn(C2OC(COC(C)=O)C(OC(C)=O)C2OC(C)=O)n1 (configuration not stated)	0.6%	0.0	4.3	-8	2	9
CCC(Sc1nnc(-c2ccc(C)c(Cl)c2)n1CC)C(=O)Nc1nccs1 (configuration not stated)	-2.5%	1.8	0.2	4	7	-13
CC(C)(C)c1cc(NC(=O)CCl)n(-c2ccccc2)n1	-2.5%	-0.4	-0.7	-2	-2	1

Other entries:
SMILES	PINK1 expr mod	TRPML1 ag	D2 agonist	D2 potentiator	TRPML1 inh	Six1-Eya2 inh
Cc1ccccc1NC(=S)NNC(=O)c1cccc(Br)c1	-4.0%	-1.8	-5.5	-11	-11	0
Cc1cc(NC(=O)c2ccc(N(C)S(=O)(=O)c3ccccc3)cc2)no1	?	1.4	-1.5	2	2	17
CCOC(=O)[C@]12CCC=C1N(Cc1cccc3ccccc13)C(=O)[C@H](CC(=O)NCCCOC)C2	-1.0%	-0.7	.	.	.	1
CC(=O)Nc1cccc(O)c1	2.4%	0.2	7.5	22	1	0
CCCCOCCCNCc1cccn1CCN1CCOCC1	-0.8%	0.1	-1.3	-11	5	-18
CCN(CC)S(=O)(=O)c1ccc(S(=O)(=O)Nc2ccc(C(=O)N3CCCC3)cc2)cc1	0.7%[38.3 µM]	1.0	-0.3	2	-6	0
CCOC(=O)N/N=C/C=C/c1ccccc1[N+](=O)[O-]	0.6%	-0.3	0.0	-1	-5	5
CC1=C(c2ccccc2)C=NNCC1=O	0.5%	0.2	0.3	-4	18	-1
Cc1cc(=O)oc2c(C)c(OC(C)C(=O)NC(Cc3c[nH]c4ccc(O)cc34)C(=O)O)ccc12 (configuration not stated)	-0.6%	.	-2.7	-15	.	-28
O=C(O)c1ccc2cccc(Cl)c2c1O	-1.0%	-0.7	1.7	?	1	7

Individual results from the results shown:
In PINK1 expr mod, `COc1ccccc1N1CCN(C(=O)CSc2nc(C)c(Cc3ccccc3)c(=O)[nH]2)CC1` has -1.6%[38.3 µM]
In D2 potentiator, `COC(=O)c1ncn(C2OC(COC(C)=O)C(OC(C)=O)C2OC(C)=O)n1` (configuration not stated) has -8

Further results.
SMILES	PINK1 expr mod	TRPML1 ag	D2 agonist	D2 potentiator	TRPML1 inh	Six1-Eya2 inh
Cc1ccc(/C=N/NC(=S)NC2CCS(=O)(=O)C2)cc1 (configuration not stated)	.	-0.2	-2.7	-6	-8	-2
CCOC(=O)C1CCN(C(=O)C2CCCN2S(=O)(=O)c2ccc(Cl)cc2)CC1 (configuration not stated)	-2.0%	0.9	-4.9	-9	36	0
COc1cc(C(Nc2ccc3c(c2)OCO3)C(=O)NC2CCCCC2)cc(OC)c1OC (configuration not stated)	-0.1%	-0.4	-3.3	-12	-18	-14
CC(=O)NNC(=O)c1[nH]c2ccc(Cl)cc2c1-c1ccccc1	2.6%	3.6	0.6	0	25	-1
CCOc1cc2c3c(c1)C1(OCCO1)C(=O)N3C(C)(C)CC2C (configuration not stated)	0.4%	1.4	-1.0	-5	3	-1
CCc1nccn1S(=O)(=O)c1ccc(OC)c(OC)c1	-1.2%	0.0	8.2	-2	-1	9
Cc1cc(OC(=O)C(c2ccccc2)c2ccccc2)c([N+](=O)[O-])c(=O)[nH]1	2.7%	-0.4	2.1	6	0	4
O=c1oc2ccccc2c(Nc2ccc3ncccc3c2)c1[N+](=O)[O-]	4.7%	-0.6	-5.5	-17	8	-8
C[C@@H]1CN([C@H](C)CO)C(=O)CCCn2cc(nn2)CO[C@H]1CN(C)C(=O)c1ccc(N2CCN(C)CC2)cc1	5.2%	1.2	-1.6	-6	20	25
O=C(NCCc1c[nH]c2ccccc12)c1ccccc1	-0.4%	0.3	1.0	-4	11	-20
CCCc1cc(=O)oc2cc(C)cc(OC(C)C(=O)NCCN3CCOCC3)c12 (configuration not stated)	-0.2%	-0.6	-2.5	-27	-8	15
O=C(CCCO)N/N=C/c1cc(Br)ccc1O	-0.3%	0.1	-7.3	-28	-7	-69*

Reprinted at random: seven records from the list.
SMILES	PINK1 expr mod	TRPML1 ag	D2 agonist	D2 potentiator	TRPML1 inh	Six1-Eya2 inh
CC(=O)NNC(=O)c1[nH]c2ccc(Cl)cc2c1-c1ccccc1	2.6%	3.6	0.6	0	25	-1
O=c1oc2ccccc2c(Nc2ccc3ncccc3c2)c1[N+](=O)[O-]	4.7%	-0.6	-5.5	-17	8	-8
O=C(CCCO)N/N=C/c1cc(Br)ccc1O	-0.3%	0.1	-7.3	-28	-7	-69*
Cc1ccc(/C=N/NC(=S)NC2CCS(=O)(=O)C2)cc1 (configuration not stated)	.	-0.2	-2.7	-6	-8	-2
CCCc1cc(=O)oc2cc(C)cc(OC(C)C(=O)NCCN3CCOCC3)c12 (configuration not stated)	-0.2%	-0.6	-2.5	-27	-8	15
C[C@@H]1CN([C@H](C)CO)C(=O)CCCn2cc(nn2)CO[C@H]1CN(C)C(=O)c1ccc(N2CCN(C)CC2)cc1	5.2%	1.2	-1.6	-6	20	25
CCOC(=O)C1CCN(C(=O)C2CCCN2S(=O)(=O)c2ccc(Cl)cc2)CC1 (configuration not stated)	-2.0%	0.9	-4.9	-9	36	0
